CBX7 AlphaScr – blocks human CBX7 binding to H3K27me3 peptide; 1.1% of 66,000 active; AlphaScreen His6-CBX7 / biotin-H3K27me3 peptide binding; stronger effect = lower value; AID 1224903; O95931; normalised signal (fraction of DMSO) (concentration not given with the values); in the data active means normalised signal below about 0.5;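 further: 100 nL library stock added to about 20 µL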
Target sequence (O95931 whole entry, looked up): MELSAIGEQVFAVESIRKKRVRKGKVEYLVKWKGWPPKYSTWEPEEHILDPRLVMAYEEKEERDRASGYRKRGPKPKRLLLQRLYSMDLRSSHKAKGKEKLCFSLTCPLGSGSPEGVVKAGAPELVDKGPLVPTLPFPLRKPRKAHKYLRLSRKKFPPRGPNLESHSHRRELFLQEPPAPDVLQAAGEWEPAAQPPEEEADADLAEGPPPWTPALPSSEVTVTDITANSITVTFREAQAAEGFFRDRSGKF
CBX7 AlphaScr z-score – second read-out of CBX7 AlphaScr, no call of its own (marks repeat the call); z-score; measured here: z-score of CBX7 signal; some inactives read as strong as hits; reference of the scale not given here;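 same signal on another scale; lower means less binding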
Active calls of the source: *.

Preview, two compounds:
SMILES | CBX7 AlphaScr | CBX7 AlphaScr z-score
O=C(c1n[nH]c(=O)c2ccccc12)N1CCN(c2ccccc2F)CC1 | 1.2 | 1.1
COc1ccc(NC(=O)c2cc(-c3ccc(F)cc3)on2)c(OC)c1 | 1.1 | 0.12

This part in full, from the start:
SMILES | CBX7 AlphaScr | CBX7 AlphaScr z-score
O=C(c1n[nH]c(=O)c2ccccc12)N1CCN(c2ccccc2F)CC1 | 1.2 | 1.1
COc1ccc(NC(=O)c2cc(-c3ccc(F)cc3)on2)c(OC)c1 | 1.1 | 0.12
O=C(NCCc1ccccc1)c1ccc2c(c1)N(Cc1cccc(F)c1)C(=O)c1ccccc1S2 | 1.1 | 2.8
COc1ccc(C(=O)N2CC(=O)Nc3ccc(C)cc3C2c2ccc(F)cc2)cc1 (configuration not stated) | 0.74 | -4.7
COc1ccc(Cn2c(=O)[nH]c3cc(C(=O)NCCc4ccc(S(N)(=O)=O)cc4)ccc3c2=O)cc1 | 0.99 | -0.15
CCc1cccc(NC(=O)C2c3cc(OC)c(OC)cc3C(=O)N3CCc4ccccc4C23)c1 (configuration not stated) | 1.2 | 0.23
O=C(CCc1cn(Cc2ccccc2)c2ccccc12)NC1CC1 | 1 | 1.3
COc1ccc(-n2c3c(cc(C(=O)NCc4ccc5c(c4)OCO5)c2=O)C(=O)CC(C)(C)C3)cc1 | 1 | 1.4
COc1ccc(C(=O)Nc2ccc(Cl)c(-c3nc4cc(C)c(C)cc4o3)c2)cc1 | 1.2 | 2
COc1cccc(C(=O)N2CC(=O)Nc3ccc(Cl)cc3C2c2ccccc2)c1 (configuration not stated) | 0.72 | -2.6
CC1CCN(S(=O)(=O)c2ccc3[nH]c(=O)cc(C(=O)NCc4ccccn4)c3c2)CC1 | 0.91 | -1.6
CCN(CC)c1cc(C)c2cc(NC(=O)c3cc(OC)cc(OC)c3)ccc2n1 | 0.97 | -0.38
Cc1c(Cl)cccc1NC1c2ccccc2C(=O)N1Cc1ccccc1 (configuration not stated) | 1 | 0.061
Cc1ccc(C)c(NC(=O)c2cnn(-c3ccc(F)cc3)c2C2CCNCC2)c1 | 0.91 | -1.7
O=C(CSc1nnc(CNC(=O)c2ccccc2F)o1)Nc1ccc(F)cc1F | 1 | 0.55
O=C1c2ccccc2C(Nc2ccccc2F)N1c1cccnc1 (configuration not stated) | 1.1 | 0.96
CCOC(=O)c1c(NC(=O)c2ccccc2C)sc2c1CCC(C)C2 (configuration not stated) | 1.2 | 4.3
COc1cccc(C(=O)NCCc2cc3ccc(OC)cc3[nH]c2=O)c1 | 1.2 | 1.4
CCCCN(CCCNC(=O)CN1C(=O)C(CC)Oc2ccccc21)Cc1ccccc1 (configuration not stated) | 1 | 0.82
Cc1ccc2c(c1)-c1c(cnn1CC(=O)N1CCN(c3cccc(Cl)c3)CC1)CO2 | 0.95 | -1.4
COc1ccc(N2CCN(C(=O)C3CCCN(S(=O)(=O)c4cccc5cccnc45)C3)CC2)cc1 (configuration not stated) | 0.96 | -0.53
O=C(c1c[nH]c2ccc(S(=O)(=O)N3CCCCC3c3cccnc3)cc2c1=O)N1CCCC1 (configuration not stated) | 1 | 0.64
CCOc1ccc(-n2c(Cc3cc(=O)[nH]c(=O)[nH]3)nnc2SCC(=O)Nc2ccccc2)cc1 | 0.9 | -1.5
Cc1cccc(OCC(=O)Nc2ccc(-c3nc4ccccc4o3)cc2)c1C | 0.79 | -2.2
COc1cccc(C2=NOC(C(=O)N3C(C)CCCC3C)C2)c1OC (configuration not stated) | 1 | 0.091
CCOc1ccc(S(=O)(=O)c2cn(Cc3ccccc3F)c3ccc(OCC)cc3c2=O)cc1 | 0.95 | -2
CC(=O)N1CCc2cc(S(=O)(=O)NC(C(=O)NCCN(C)Cc3ccccc3)C(C)C)ccc21 (configuration not stated) | 1.1 | 1.1
C=CCN(c1ccccc1)S(=O)(=O)c1ccc2[nH]cc(C(=O)NCCc3ccccc3)c(=O)c2c1 | 1 | 0.95
Cc1cccc(-n2c(Cc3cc(=O)[nH]c(=O)[nH]3)nnc2SCC(=O)NCc2ccc(F)cc2)c1 | 1 | 0.11
CCN(CC)C(=O)Cn1ncc2c1-c1cc(C)ccc1OC2 | 1 | 0.66
CC1CCc2nc(NC(=O)c3ccc(S(=O)(=O)N4CCOCC4)cc3)sc2C1 (configuration not stated) | 1.1 | 0.88
CCCCN(CC)S(=O)(=O)c1ccc(C(=O)Nc2nnc(C)o2)cc1 | 0.024* | -1.3*
O=C(Nc1ccccc1)c1cccnc1Nc1ccc(F)cc1 | 0.8 | -0.71
COc1ccc(NC(=O)C2CCCNC2=O)cc1 (configuration not stated) | 1 | 0.95
Cc1ccc(-n2nc3c(c2NC(=O)c2ccc(S(=O)(=O)N(C)C)cc2)CSC3)cc1 | 1 | 0.96
Cc1ccccc1N1C(=O)c2ccccc2C1Nc1c(C)cccc1C (configuration not stated) | 0.94 | -2
O=C(CN1C(=O)CC(c2ccccc2)Sc2ccccc21)Nc1cccc(F)c1 (configuration not stated) | 1 | 0.64
CC1CCCC(C)N1CCCNC(=O)Cn1nc(Cc2ccncc2)c2ccccc2c1=O (configuration not stated) | 1.1 | 0.85
Cc1oc(-c2ccccc2Cl)nc1CSCC(=O)NC1CCCCC1 | 0.71 | -4.8
O=C(Nc1ccccc1Cl)C1CCN(C(=O)c2cnn(-c3ccccc3)c2-n2cccc2)CC1 | 1 | 1.7
CCOc1ccc2nc(C)cc(Nc3cccc(Cl)c3C)c2c1 | 0.94 | -1.5
Cc1oc(-c2ccccc2F)nc1CN1CCCC(C(=O)NCc2cccnc2)C1 (configuration not stated) | 1.1 | 0.65
COc1ccc(NC(=O)C2(NC(=O)c3ccc(-n4cnnn4)cc3)CCCCC2)cc1 | 0.97 | -0.14
CCCCn1c(CCNC(=O)c2ccc(OC)c(OC)c2)nc2ccccc21 | 1.1 | 0.78
O=C(NCc1ccc2c(c1)OCO2)c1cc2n(n1)C(C(F)(F)F)CC(c1ccc3c(c1)OCO3)N2 (configuration not stated) | 0.84 | -0.16

Part of the list above in order of molecular weight, ascending.
SMILES | CBX7 AlphaScr | CBX7 AlphaScr z-score
COc1ccc(NC(=O)C2CCCNC2=O)cc1 (configuration not stated) | 1 | 0.95
CCOc1ccc2nc(C)cc(Nc3cccc(Cl)c3C)c2c1 | 0.94 | -1.5
Cc1ccccc1N1C(=O)c2ccccc2C1Nc1c(C)cccc1C (configuration not stated) | 0.94 | -2
Cc1oc(-c2ccccc2Cl)nc1CSCC(=O)NC1CCCCC1 | 0.71 | -4.8
Cc1oc(-c2ccccc2F)nc1CN1CCCC(C(=O)NCc2cccnc2)C1 (configuration not stated) | 1.1 | 0.65
COc1ccc(NC(=O)C2(NC(=O)c3ccc(-n4cnnn4)cc3)CCCCC2)cc1 | 0.97 | -0.14
Cc1ccc(-n2nc3c(c2NC(=O)c2ccc(S(=O)(=O)N(C)C)cc2)CSC3)cc1 | 1 | 0.96

The results go on.
SMILES | CBX7 AlphaScr | CBX7 AlphaScr z-score
Cc1ccc(-c2nnc(Nc3ccc(S(N)(=O)=O)cc3)c3ccccc23)cc1S(=O)(=O)N1CCOCC1 | 0.98 | -0.45
CCN1CCN(C(=O)Cn2nc(-c3ccc(Cl)cc3)ccc2=O)CC1 | 0.99 | -0.62
O=C(NC(c1ccccc1)c1c(O)ccc2ccccc12)c1ccc(Br)cc1 (configuration not stated) | 0.9 | -1
Cc1ccc2nc(N3CCN(C4CCCCC4)CC3)c(-n3nc(C)cc3C)nc2c1 | 1.1 | 3
Cc1ccc(CNC(=O)c2sccc2-n2cccc2)cc1 | 1 | 0.11
Cc1cc(OCC(O)CN2CCN(c3ccc(F)cc3)CC2)ccc1C(C)C (configuration not stated) | 0.69 | -2.4
CCOc1ccc(NC(=O)CC2C(=O)N(c3ccccc3)C(=O)N2Cc2ccc3c(c2)OCO3)cc1 (configuration not stated) | 0.84 | -0.68
Cc1ccc(OCC(=O)Nc2cccc(-c3nc4cc(C)ccc4o3)c2)c(C)c1 | 1.2 | 1.8
COc1cc(-c2cc(C(N)=O)on2)cc(OC)c1OC | 0.99 | -0.25
COc1ccc(Nc2cc(C(=O)NCc3ccccc3Cl)c3ccccc3n2)cc1 | 1.2 | 1.8
COc1ccc(CC(=O)N2CC(=O)Nc3ccc(Cl)cc3C2c2ccccc2)cc1OC (configuration not stated) | 1 | 0.03
CCCCC(=O)N1c2ccccc2NC2=C(C(=O)CCC2)C1c1ccc(Cl)cc1 (configuration not stated) | 1 | 0.12
CCOC(=O)N1CCC(NC(=O)C2=CCN(S(=O)(=O)c3ccc(OC)cc3)CC2)CC1 | 1 | 0.74
CC1CCN(CCNC(=O)C2(S(=O)(=O)c3ccc(Cl)cc3)CC2)CC1 | 1.1 | 3.7
Cc1ccc(C)c(CSc2nc3ccncc3n2CC(=O)N(C)c2ccccc2)c1 | 1 | 0.88

One compound at a time, as listed above:
Entry for COc1ccc(C(=O)N2CC(=O)Nc3ccc(C)cc3C2c2ccc(F)cc2)cc1 (configuration not stated) = CBX7 AlphaScr: 0.74; CBX7 AlphaScr z-score: -4.7
Entry for CCCCC(=O)N1c2ccccc2NC2=C(C(=O)CCC2)C1c1ccc(Cl)cc1 (configuration not stated) = CBX7 AlphaScr: 1; CBX7 AlphaScr z-score: 0.12

(more compounds)
SMILES | CBX7 AlphaScr | CBX7 AlphaScr z-score
O=C(c1ccc2c(c1)N(Cc1ccc(F)cc1)CCS2)N1CCCCC1 | 1.1 | 2
Cc1ccc2oc(-c3cc(NC(=O)c4cccc5c(Br)cccc45)ccc3Cl)nc2c1 | 1.1 | 1
CCOC(=O)c1cnc2c(Cl)c(Cl)ccc2c1NCCN1CCOCC1 | 1 | 0.0093
CCc1cccc(C)c1Nc1c(-c2ccccc2)nc2ncccn12 | 1 | -0.042
Cc1[nH]c2ccc(-c3nnc(SCC(=O)Nc4ccc(F)cc4)o3)cc2c1C | 0.94 | -0.65
Cc1ccc2cc(CCNC(=O)Cc3cccs3)c(=O)[nH]c2c1 | 1 | 2.1
COc1ccc(S(=O)(=O)NCCC(=O)NCc2ccc(F)cc2)cc1 | 0.99 | -0.094
CCn1c(C2CC(=O)N(c3c(C)cc(C)cc3C)C2)nc2ccccc21 (configuration not stated) | 1 | 0.11
Cc1ccc(N2CC(c3nc4ccccc4n3CCOc3ccccc3)CC2=O)cc1C (configuration not stated) | 0.93 | -1.7
Cc1cccc(N2CCN(CCNC(=O)CC3Oc4ccccc4NC3=O)CC2)c1C (configuration not stated) | 1.1 | 0.66
O=C(Cc1c(C(=O)O)[nH]c2ccc(Cl)cc12)Nc1cccnc1 | 1.2 | 2
CCn1cnc2cc(NCc3cccc(OC)c3OC)ccc21 | 0.94 | -1.5
Cc1ccc(N2CCN(c3nc(-c4ccccc4)c4cc(C)ccc4n3)CC2)c(C)c1 | 2.7 | 30
N#Cc1nc(COc2cccc(Cl)c2)oc1NCCc1ccccc1 | 0.69 | -1.9
O=C(NCc1cccs1)c1cc(-c2cccs2)on1 | 0.85 | -0.15
CCOC(=O)N1CCC(N2Cc3cccc(C(=O)Nc4ccc(F)cc4)c3C2=O)CC1 | 1 | 1.6
O=C(CN1C(=O)CSc2ncccc21)NC1CC1 | 1 | -0.14
O=C(NCCCn1ccnc1)c1nn2c(C(F)(F)F)cc(-c3ccccc3)nc2c1Br | 0.67 | -3.5
CCc1ccc(NC(=O)Cn2cc(S(=O)(=O)c3ccc(Cl)cc3)c(=O)c3ccccc32)cc1 | 0.98 | -0.26
Cc1ccc(C(=O)Nc2c(-c3cccs3)nc3ccccn23)cc1 | 1 | 0.43
CC(C)C(=O)N1CC(=O)Nc2ccc(Br)cc2C1c1ccc(F)cc1 (configuration not stated) | 0.96 | -0.55
Cc1ccc(-c2nc(CSCC(=O)N3CCOCC3)c(C)o2)cc1 | 1 | 0.092
Cc1ccc(C2CC(=O)NC3=C2C(=O)CC(C)(C)C3)cc1 (configuration not stated) | 1 | 0.013
CC(C)Oc1ccc(C(=O)Nc2cccc(-c3nc4ccccc4[nH]3)c2)cc1 | 1.2 | 1.8
COc1ccc2c(c1)CCc1c(C(=O)N3CCOCC3)noc1-2 | 1 | 0.13
Cc1onc(-c2ccccc2Cl)c1C(=O)N1CCN(c2ccccn2)CC1 | 0.92 | -1.5
CC(C)Sc1oc(-c2ccc(F)cc2)nc1S(=O)(=O)c1ccc(Br)cc1 | 0.87 | -1.1
O=C(c1cccc(F)c1)N1CCN(c2ccc3nnc(-c4ccccc4)n3n2)CC1 | 0.84 | -2.2
COc1ccc(C2=NN(c3nc(-c4ccc(S(=O)(=O)N5CCCC5)cc4)cs3)C(c3ccc(OC)cc3)C2)cc1 (configuration not stated) | 1.1 | 2.6
Cc1ccc(N2C(=O)c3ccccc3C2Nc2cccc(C(F)(F)F)c2)nc1 (configuration not stated) | 0.93 | -0.98
COc1ccc(-c2noc(COc3ccc(C(C)C)cc3)n2)cc1 | 2.1 | 1.2
Cc1ccc(NC(=O)C2CCCN2S(=O)(=O)c2cccc3cccnc23)c(Cl)c1 (configuration not stated) | 1 | 1.2
CCC1CCCCN1S(=O)(=O)c1ccc(C(=O)Nc2nnc(C)o2)cc1 (configuration not stated) | 0.094* | -24*
COc1ccc(C2Nc3ccc(C(=O)c4ccccc4)cc3NC3=C2C(=O)CC(C)(C)C3)cc1 (configuration not stated) | 0.76 | -2.9
O=C(Cn1nc(-c2ccccc2)c2cc(Cl)ccc21)NCc1cccnc1 | 1 | 0.62
COc1ccc(C)cc1N(C)C(=O)Cn1ncc2c1-c1ccccc1OC2 | 0.93 | -2.1
CCc1nnc(NC(=O)c2ncn[nH]2)s1 | 0.38* | -28*
COc1ccc(CNC(=O)CC2(CC3=NS(=O)(=O)c4ccccc4N3)CCCC2)cc1 | 0.93 | -0.77

From PubChem

Some of the compounds tested (hit frequency here may not be typical).
